Source: PubChem BioAssay
CtBP-E1A blk = blocks the CtBP interaction with E1A. AlphaScreen GST-E1A/His-CtBP binding, 1536-well; active compounds read low; control for the full effect not named in the record. activity change, % (no concentration beside the values). 340,000 tested, 0.49% active; in the data active means activity change below about -65%; inconclusive means about -30% to -65%; inactive means above about -30%; note: % is set by controls: 0 for no effect and ±100 for the full control effect
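In 5 uL wells, 23 nL compound meets equimolar GST-E1A and His-CtBP (5X stock 125 nM each) for 2 h, 37 °C. Beads (5X, 50 ug/mL) then 1 h, 37 °C, dark.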
TRPV1 PAM = human TRPV1 potentiation; Q8NER1; TRPV1-expressing cells, Fluo-8 calcium influx, capsaicin EC20 potentiation; host cell line not named in the record; control for the full effect not named in the record; potentiation, % at 8.33 µM; 320,000 tested, 0.02% active; AID 540277; active means potentiation above 80%; inconclusive means 30% to 80%; inactive means below 30%; note: 0% is about no effect
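TRPV1-expressing cells were cultured overnight at 35.5C and loaded with Fluo-8 calcium dye for 40 to 90 min at room temperature. After a 10 s baseline, compound was added and calcium influx was read kinetically for 3 min (ex 480/em 520 nm).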
D2 PAM = positive allosteric modulators of human D2 dopamine receptor. P14416. 360,000 tested, 0.23% active. DiscoveRx D2 beta-arrestin cells, luminescence, 90 min; 100% = 57 uM dopamine signal. potentiation, % (concentration not given with the values); active = potentiation of 50% or more; inconclusive = 30% to 50%; inactive = 30% or less;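 note: compound concentration not given in the record; tested on top of an EC20 dose of dopamine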
Target sequence (P14416 whole entry, looked up): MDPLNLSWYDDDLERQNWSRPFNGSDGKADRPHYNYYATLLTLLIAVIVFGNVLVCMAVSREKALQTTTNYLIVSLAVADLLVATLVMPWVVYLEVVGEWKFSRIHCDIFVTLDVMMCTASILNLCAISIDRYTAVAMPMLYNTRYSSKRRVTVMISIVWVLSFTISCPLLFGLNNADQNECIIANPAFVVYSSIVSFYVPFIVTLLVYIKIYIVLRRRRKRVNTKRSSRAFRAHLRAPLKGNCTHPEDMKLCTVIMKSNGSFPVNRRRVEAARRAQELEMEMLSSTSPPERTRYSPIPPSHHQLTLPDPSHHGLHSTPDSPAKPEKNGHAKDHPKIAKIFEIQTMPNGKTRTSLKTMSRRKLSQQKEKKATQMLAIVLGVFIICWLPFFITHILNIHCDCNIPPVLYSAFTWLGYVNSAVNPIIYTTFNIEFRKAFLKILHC
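D2 cells co-treated with compound plus 50 nM dopamine (EC20) for 90 min at 37 deg C to detect potentiation. Beta-arrestin recruitment was read as enzyme-fragment luminescence after 1 h at ambient temperature. Full response was set by 57 uM dopamine.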
Six1-Eya2 inh = Six1/Eya2 interaction inhibition; Q15475+O00167; AlphaScreen GST-Six1/His-Eya2 binding, biochemical; active compounds read low; control for the full effect not named in the record; activity change, % (test concentration not listed); 360,000 tested, 0.56% active; in the data active = activity change below about -65%; inconclusive = about -30% to -65%; inactive = above about -30%; note: % is set by controls: 0 for no effect and ±100 for the full control effect
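AlphaScreen luminescence read after one hour at 37 °C in darkness. Pin-transferred compounds met GST-Six1 and His-Eya2 protein (5X stock 250 nM/500 nM) plus glutathione donor and Ni-chelate acceptor beads (5X, 50 ug/mL).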
TRPML1 agonist = agonists of human TRPML1 channel; Q9GZU1; TRPML1-expressing cells, Ca2+ dye fluorescence, FDSS; host cell line not named in the record; reference of the full effect not given here; activation, % (test concentration not listed); 410,000 tested, 0.12% active; in the data active = activation above about 50%; inconclusive = about 30% to 50%; inactive = below about 30%; note: 0% is about no effect; the text of the record puts the active cut at 80%
Target sequence (Q9GZU1 whole entry, looked up): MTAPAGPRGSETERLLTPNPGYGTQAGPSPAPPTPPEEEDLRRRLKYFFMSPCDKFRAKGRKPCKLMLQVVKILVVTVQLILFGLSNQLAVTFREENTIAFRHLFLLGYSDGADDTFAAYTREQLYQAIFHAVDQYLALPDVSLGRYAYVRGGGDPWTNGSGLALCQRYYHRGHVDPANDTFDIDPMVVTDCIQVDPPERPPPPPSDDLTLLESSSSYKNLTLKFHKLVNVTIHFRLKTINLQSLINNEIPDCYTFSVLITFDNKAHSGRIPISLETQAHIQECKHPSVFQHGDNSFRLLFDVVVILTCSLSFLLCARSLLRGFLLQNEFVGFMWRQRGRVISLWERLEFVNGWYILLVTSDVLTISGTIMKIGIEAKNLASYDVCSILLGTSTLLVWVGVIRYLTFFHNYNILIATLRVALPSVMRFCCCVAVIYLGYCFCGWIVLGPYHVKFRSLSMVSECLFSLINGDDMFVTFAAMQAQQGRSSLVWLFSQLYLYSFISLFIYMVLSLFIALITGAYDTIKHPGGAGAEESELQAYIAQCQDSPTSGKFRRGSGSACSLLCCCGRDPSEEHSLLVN
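TRPML1-DL cells, Tet-induced overnight (~16 h, 37 degrees C), loaded 45-90 min at room temperature with Ca8 no-wash calcium dye plus quencher. FDSS fluorescence: 10 s baseline, compound pin-transfer, 110 s agonist read, then EC80 54-4 (4uM final) and 110 s antagonist read.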
TRPML1 blocker = inhibitors of human TRPML1 channel; Q9GZU1; TRPML1-inducible cells, Ca2+ dye fluorescence, FDSS; active compounds read low; inhibition of EC80 agonist-evoked calcium signal; activity change, negative = inhibition, % (no concentration beside the values); 390,000 tested, 0.02% active; in the data active means activity change below about -50%; inconclusive means about -30% to -50%; inactive means above about -30%;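 note: stimulus is agonist 54-4 at its EC80 concentration; % is set by controls: 0 for no effect and ±100 for the full control effect; compound concentration not given in the record; the text of the record puts the active cut at -80%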
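Calcium fluorescence in TRPML1-DL cells induced overnight with Tet: a 110 s read after compound pin addition, then a 110 s antagonist read after challenge with 54-4 at 4 uM final (EC80).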
The depositor's hits bear a star; ? = inconclusive; · = not tested or not shown. An unsorted share of the library (roughly 0.95% active in at least one column).

SMILES	CtBP-E1A blk	TRPV1 PAM	D2 PAM	Six1-Eya2 inh	TRPML1 agonist	TRPML1 blocker
Cc1nc(Nc2ccccc2C(F)(F)F)sc1C(=O)N(C)C	4	-9	1	-1	-0.5	10
COc1ccc(OC)c(NC(=O)COC(=O)C2CCCCC2)c1	9	·	-20	-5	0.4	-7
CC(C)(C)n1ncc2c(=O)n(CC(=O)OCc3ccccc3)cnc21	3	-3	-2	12	-0.7	5
CC(=O)Nc1ccc(C(C#N)c2ccccc2)cc1 (configuration not stated)	3	10	3	-2	-0.3	15
O=S(=O)(c1cccc2nsnc12)N1CCN(c2ncccn2)CC1	0	-15	7	0	-0.9	-7
Brc1ccc(C2=Nn3cnnc3SC2)cc1	-6	-6	-3	2	0.9	-1
Cc1[nH]c(=O)c(C(=O)/C=C/c2ccccc2)c2c1CCCC2	-5	11	-8	0	-0.2	-1
COC(=O)C1(c2ccccc2)NC(c2cccs2)C2C(=O)N(c3ccccc3)C(=O)C21 (configuration not stated)	8	·	-26	-2	1.1	-14
CC(C)C(=O)NC(=S)Nc1ccc(S(=O)(=O)Nc2ccccc2)cc1	0	0	-12	13	1.9	-8
CCCNC(=O)C(=O)Nc1ccc2c(c1)N(S(=O)(=O)c1cccs1)CCC2	1	-19	-10	-3	0.0	32
COc1ccc(CCNC(=O)CNCC(c2ccccc2)N(C)C)cc1OC (configuration not stated)	·	20	-7	-5	1.1	?
Cc1nc(-c2ccccc2)sc1-c1nc(-c2ccncc2)ncc1S(=O)(=O)c1ccccc1	4	5	-11	2	1.0	26
Cn1nnnc1SCCOc1ccc(C#N)cc1	-1	-4	-12	2	0.1	0
COc1ccc(NC(=O)c2cc([N+](=O)[O-])ccc2N2CCCCC2)cc1OC	-4	·	-10	?	-0.5	-1
Cc1cc(Cl)ccc1C(O)c1ncc(-c2cccc3ccccc23)[nH]1 (configuration not stated)	-14	·	-11	-18	-0.8	·
Cc1ccn2cc(-c3cccc([N+](=O)[O-])c3)nc2c1	-6	-2	2	-2	1.9	5
CCOC(=O)C1=NN(c2ccc(Cl)cc2)/C(=C/C2=NCCc3cc(OC)c(OC)cc32)S1	·	9	-1	12	0.6	36
COC(=O)c1cc2sccc2n1Cc1ccc(C)cc1	11	9	-9	20	2.2	5
CCOc1ccc(CC(=O)N/N=C(\C)c2cccnc2)cc1OCC	-19	1	3	-4	0.0	1
CC1(C)CN(CCc2ccccc2)C(=O)[C@H]1CC(=O)Nc1ccccc1	-16	·	-6	5	0.6	-4
O=C(Nc1ccc(F)c(F)c1)C1CCN(S(=O)(=O)c2cccc3nonc23)CC1	-3	-1	1	1	-1.0	6
Cc1nc(S(=O)(=O)N(C)c2ccccc2)c(C#N)c(C)c1Cl	-1	·	10	-2	0.1	-17
C=CCn1c(COc2ccccc2)nc2ccccc21	11	-28	7	8	0.3	-10
CNC(=O)N(O)C1N(C)C(=O)N(Cc2ccccc2)C1(C)C (configuration not stated)	3	-2	-4	0	-0.8	7
O=c1c2ccccc2ncn1-c1ccc(Cl)cc1Cl	·	9	-12	1	-1.1	9
O=C(NCc1ccc(OC(F)(F)F)cc1)C1CC2Cn3c(nc4ccccc43)C2N1c1ccccc1 (configuration not stated)	4	-2	-8	-3	-0.6	4
COc1cc2c(cc1OC)CN(c1ccc(F)cc1[N+](=O)[O-])CC2	?	-9	-1	?	-0.1	14
O=C(NCCOc1ccc(Cl)cc1)C1CC(=O)N(c2ccc(F)cc2)C1 (configuration not stated)	-7	-14	-8	-13	-0.2	5
COc1ccc(C2CC(c3ccccc3OC(C)=O)=NN2C(C)=O)cc1 (configuration not stated)	·	3	0	-9	0.2	15
COc1ccc(NC(=O)/C=C/c2ccc(F)cc2)cn1	-1	12	-7	-4	-0.5	-23
C/C(=N\NC(=O)CCC(=O)Nc1ccccc1)c1cccs1	-2	5	-21	-5	-0.4	36
COc1ccc(C(=O)Nc2ccccn2)cc1S(=O)(=O)N1CCOCC1	2	2	4	0	-0.1	1
Cc1ccc(OCC(=O)Nc2ccc(S(=O)(=O)N3CCCCC3)cc2)c([N+](=O)[O-])n1	-3	5	-6	-7	0.4	-7
Cc1ccc(NC(=O)c2ncn(CCCNCC3CCCCC3)n2)cc1C	1	·	1	-2	0.2	17
COCCN(C(=O)CNC(=O)c1ccco1)C(C(=O)NC1CCCCC1)c1cccc(OC)c1 (configuration not stated)	0	1	7	0	-0.6	-6
CC(C)(C)c1ccc(C2C3=C(CCCC3=O)NC3=C2C(=O)c2ccccc23)cc1 (configuration not stated)	-18	-5	-7	-22	4.8	17

4 of these compounds, reformatted:
Compound: Cc1ccc(NC(=O)c2ncn(CCCNCC3CCCCC3)n2)cc1C
  CtBP-E1A blk = 1; TRPV1 PAM = ·; D2 PAM = 1; Six1-Eya2 inh = -2; TRPML1 agonist = 0.2; TRPML1 blocker = 17

Compound: O=c1c2ccccc2ncn1-c1ccc(Cl)cc1Cl
  CtBP-E1A blk = ·; TRPV1 PAM = 9; D2 PAM = -12; Six1-Eya2 inh = 1; TRPML1 agonist = -1.1; TRPML1 blocker = 9

Compound: O=C(NCc1ccc(OC(F)(F)F)cc1)C1CC2Cn3c(nc4ccccc43)C2N1c1ccccc1 (configuration not stated)
  CtBP-E1A blk = 4; TRPV1 PAM = -2; D2 PAM = -8; Six1-Eya2 inh = -3; TRPML1 agonist = -0.6; TRPML1 blocker = 4

Compound: COCCN(C(=O)CNC(=O)c1ccco1)C(C(=O)NC1CCCCC1)c1cccc(OC)c1 (configuration not stated)
  CtBP-E1A blk = 0; TRPV1 PAM = 1; D2 PAM = 7; Six1-Eya2 inh = 0; TRPML1 agonist = -0.6; TRPML1 blocker = -6

Next compounds follow.
SMILES	CtBP-E1A blk	TRPV1 PAM	D2 PAM	Six1-Eya2 inh	TRPML1 agonist	TRPML1 blocker
COC(=O)CC1Sc2ccccc2NC1=O (configuration not stated)	-1	-2	0	0	0.6	25
O=C(C[n+]1ccc(-c2cc(C(=O)Nc3cccc(C(F)(F)F)c3)c3ccccc3n2)cc1)c1cccc([N+](=O)[O-])c1	?	-8	-11	?	0.2	2
COc1ccc(Cl)cc1NS(=O)(=O)c1cccc2cccnc12	-3	-4	-5	-26	-1.0	6
Cc1cc(NS(=O)(=O)c2ccc(NC(=O)CCCC(=O)O)cc2)nc(C)n1	-13	8	-4	-24	-0.8	-13
OC(C#Cc1ccccn1)c1cccs1 (configuration not stated)	-16	4	-17	-27	0.2	-11
CN(Cc1ccccc1)CC(O)COc1ccc(CNCc2cc3ccccc3s2)cc1 (configuration not stated)	·	-7	0	-24	-0.8	1
Cc1cccc(N2CCN(Cc3nc(-c4cccc(Cl)c4)oc3C)CC2)n1	-13	4	-5	-16	0.7	-18
COc1cc(/C=C/C(=O)OCC(=O)NCCc2ccc(F)cc2)ccc1OC(F)F	5	·	-22	-3	1.5	-13
Cc1cc(C(=O)N2CC(C)CC(C)C2)n(-c2ccccc2)n1 (configuration not stated)	8	2	-6	0	-1.3	5
O=C(Nc1ccccc1)N1CCCN(c2c(Cl)cncc2Cl)CC1	4	-20	-5	5	0.2	22
C[C@H](NC(=O)c1nc[nH]c1C(=O)N[C@@H](C)C(=O)OC(C)(C)C)C(=O)OC(C)(C)C	-13	-8	-2	-11	-0.3	17
CCN(Cc1cnn(C)c1)C(=O)c1cc(COc2ccc3c(c2)CCCC3)on1	1	21	-5	4	0.1	-3
O=C(OCc1nnc(-c2ccccc2)o1)c1ccc(-n2cnnn2)cc1	-9	6	-1	3	3.4	17
COc1ccc(OCCCC(=O)Nc2cc(S(=O)(=O)N3CCCCC3)ccc2OC)cc1	-20	4	0	-8	1.2	41
CC(C)Oc1ccc(Br)cc1/C=N\NC(N)=S	-14	-10	-10	-4	5.0	15
CC(C(=O)Nc1ccccc1)N(C)CCOc1ccc(Br)cc1 (configuration not stated)	6	-19	-4	4	3.2	20
CCN(CCCn1c(=S)[nH]c2ncccc2c1=O)c1ccccc1	-6	?	-6	4	0.1	-1
Oc1ccccc1C(=S)N1CCCCCC1	4	-3	10	-1	-1.1	-3
COCCCNC(=O)CS(=O)(=O)Cc1nc(-c2cccc(OC)c2)oc1C	5	-8	-4	0	0.3	-1
O=C(Nc1ccccc1)c1ccc(F)c(S(=O)(=O)N2CCOCC2)c1	0	-27	0	1	2.5	32
Cc1cc(C)nc(OC(C(=O)O)C(OCC(C)C)(c2ccccc2)c2ccccc2)n1 (configuration not stated)	·	-8	72*	-3	·	·
Clc1cccc(Cl)c1CSc1nnc([C@@H]2CCCN2)o1	5	-4	-7	1	-0.4	7
Cc1ccc(CNC(=O)CN(C)S(=O)(=O)c2cccc3cccnc23)cc1	-1	·	-7	-1	-0.5	-6
CCC(=O)Nc1ccc(OC)cc1OC	3	-1	-2	4	0.2	-23
COc1cc(CCC(=O)Nc2cccc(S(=O)(=O)N(C)C)c2)cc(OC)c1OC	5	6	-5	7	0.3	47
O=C(Nc1cccnc1Cl)c1cc(-c2ccc(Br)cc2)on1	-1	0	-6	14	-1.0	-7
Cc1ccc(Cn2cccc2C2=NC(C)CO2)cc1 (configuration not stated)	-3	-13	-3	-9	0.6	10
CCN(CC)S(=O)(=O)c1cccc(NC(=O)CN(C)Cc2cccc(OC)c2)c1	-23	2	-3	13	4.1	13
O=C1NC(=S)NC(=O)C1Nc1ccc(Cl)cc1	-4	·	-10	-10	-1.0	7
COc1ccc(NC(=O)CN(C)CC(=O)NCC(=O)Nc2ccc(F)cc2)cc1	3	13	-6	7	-0.1	12
O=C(CSc1nnc(CNC(=O)c2ccco2)o1)Nc1ccccc1C(F)(F)F	10	28	-3	1	-0.5	-3
CCc1noc(C)c1C(=O)NNC(=O)c1ccccc1Cl	9	6	-3	1	-0.2	11
O=C1CC(=Nc2ccc([N+](=O)[O-])cc2)NN1c1c(Cl)cc(Cl)cc1Cl	-2	·	-15	-14	-0.1	-2
O=C(NCCCN1CCCC1=O)c1cc(COc2ccc(F)cc2F)on1	9	7	-8	-1	-0.6	-2
CCCOC1CCCN(C(=O)c2ccc3oc(C(C)C)nc3c2)C1 (configuration not stated)	-1	3	-10	0	-0.8	-9
O=C(O)CCC(=O)NCc1c(Cl)cccc1Sc1ccc(Cl)cc1	5	5	-4	7	-0.2	1

Ordered by number of heavy atoms (lowest first): part of the list above
SMILES	CtBP-E1A blk	TRPV1 PAM	D2 PAM	Six1-Eya2 inh	TRPML1 agonist	TRPML1 blocker
CCc1noc(C)c1C(=O)NNC(=O)c1ccccc1Cl	9	6	-3	1	-0.2	11
O=C(NCCCN1CCCC1=O)c1cc(COc2ccc(F)cc2F)on1	9	7	-8	-1	-0.6	-2
COc1ccc(NC(=O)CN(C)CC(=O)NCC(=O)Nc2ccc(F)cc2)cc1	3	13	-6	7	-0.1	12

Other records:
SMILES	CtBP-E1A blk	TRPV1 PAM	D2 PAM	Six1-Eya2 inh	TRPML1 agonist	TRPML1 blocker
O=C1CCCN1c1cccc(Br)c1	3	?	-11	2	0.2	30
CC1(C)CC(CC(=O)O)(c2ccccc2)CCO1 (configuration not stated)	-6	-5	7	11	0.4	4
O=C1C(=O)N(CCS(=O)(=O)c2ccccc2)c2ccc(F)cc21	9	9	-72	4	0.6	0
Cc1csc(=O)n1CCC(=O)OCC(=O)c1c(N)n(C)c(=O)n(C)c1=O	-4	-5	-10	1	-0.1	-3
CN(CC(=O)NCCc1ccc(F)cc1)Cc1ccc(Br)cc1	1	-3	-8	1	-0.4	-6
CC(=O)Nc1cccc(NC(=O)c2cccc3cccnc23)c1	-12	-15	-2	-9	0.2	-5
